TRPML1 blocker: qHTS for Inhibitors of the Human Mucolipin Transient Receptor Potential 1 (TRPML1) | AID 624415, 2012 | actives 0.02% (n = 390,000) | Mucolipin-1 (Homo sapiens), Q9GZU1 | TRPML1-inducible cells, Ca2+ dye fluorescence, FDSS; active compounds read low; inhibition of EC80 agonist-evoked calcium signal | activity change, negative = inhibition, % (concentration not given with the values); in the data active means activity change below about -50%; inconclusive means about -30% to -50%; inactive means above about -30%;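 further: stimulus is agonist 54-4 at its EC80 concentration; on the % scale 0 is the no-effect control and ±100 the full control effect; the text of the record puts the active cut at -80%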
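Calcium fluorescence in TRPML1-DL cells induced overnight with Tet: a 110 s read after compound pin addition, then a 110 s antagonist read after challenge with 54-4 at 4 uM final (EC80).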
Menin-MLL FL inh: qHTS Assay for Inhibitors Targeting the Menin-MLL Interaction in MLL Related Leukemias: Competition With Fluorescein Labeled MLL-derived Peptide; AID 1766, 2009; Fluorescence polarization, fluorescein-MLL peptide displacement from menin; FP activity change, % at 61.4 µM; 290,000 tested, under 10 active; inconclusive = falling polarisation curve, or a change in total fluorescence; inactive = total fluorescence flat and polarisation flat or rising; no compound was filed as active; the % refers to the polarisation; negative = inhibition;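 further: % of control where 0% means no effect; inhibitors lower the polarisation; unlabelled MLL peptide was the positive control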
Sfp PPTase inh: qHTS Assay for Inhibitors of Bacillus subtilis Sfp phosphopantetheinyl transferase (PPTase) | 4'-phosphopantetheinyl transferase ffp (Bacillus subtilis), Q9F4F7 | Biochemical Sfp PPTase activity, qHTS | Potency, µM, for the others: max response, negative = inhibition, hits mostly inhibitors | actives 3.5% (n = 310,000) | AID 1490, 2009; active means well fitted inhibition curve with a large enough effect; inconclusive means small, poorly fitted or top-dose-only effect, or another doubt; inactive means no such curve, though single readings can be large or run the other way;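 further: the enzyme is Sfp with the accession as filed and its product quenches rhodamine fluorescence; potency means the concentration at half of the fitted maximal effect; 0% = enzyme reaction without inhibitor and -100% = no enzyme wells; top concentration of the series not given in the record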
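Fluorescence-quenching assay with 15 nM Sfp, 5 uM rhodamine-CoA and 12.5 uM BHQ-2-labelled ybbR peptide in pH 7.6 Hepes/MgCl2 buffer. Enzyme was pre-incubated with compound for 15 min at room temperature. Rate was taken from the 30-min fluorescence change (525/598 nm).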
TRPV1 potentiator: HTS Assay for Compounds that Act as Potentiators of the Vanilloid Receptor 1; TRPV1-expressing cells, Fluo-8 calcium influx, capsaicin EC20 potentiation; host cell line not named in the record; control for the full effect not named in the record; Transient receptor potential cation channel subfamily V member 1 (Homo sapiens), Q8NER1; AID 540277, 2011; potentiation, % at 8.33 µM; actives 0.02% (n = 320,000); active means potentiation above 80%; inconclusive means 30% to 80%; inactive means below 30%; further: 0% is about no effect
Target sequence (Q8NER1 whole entry, looked up): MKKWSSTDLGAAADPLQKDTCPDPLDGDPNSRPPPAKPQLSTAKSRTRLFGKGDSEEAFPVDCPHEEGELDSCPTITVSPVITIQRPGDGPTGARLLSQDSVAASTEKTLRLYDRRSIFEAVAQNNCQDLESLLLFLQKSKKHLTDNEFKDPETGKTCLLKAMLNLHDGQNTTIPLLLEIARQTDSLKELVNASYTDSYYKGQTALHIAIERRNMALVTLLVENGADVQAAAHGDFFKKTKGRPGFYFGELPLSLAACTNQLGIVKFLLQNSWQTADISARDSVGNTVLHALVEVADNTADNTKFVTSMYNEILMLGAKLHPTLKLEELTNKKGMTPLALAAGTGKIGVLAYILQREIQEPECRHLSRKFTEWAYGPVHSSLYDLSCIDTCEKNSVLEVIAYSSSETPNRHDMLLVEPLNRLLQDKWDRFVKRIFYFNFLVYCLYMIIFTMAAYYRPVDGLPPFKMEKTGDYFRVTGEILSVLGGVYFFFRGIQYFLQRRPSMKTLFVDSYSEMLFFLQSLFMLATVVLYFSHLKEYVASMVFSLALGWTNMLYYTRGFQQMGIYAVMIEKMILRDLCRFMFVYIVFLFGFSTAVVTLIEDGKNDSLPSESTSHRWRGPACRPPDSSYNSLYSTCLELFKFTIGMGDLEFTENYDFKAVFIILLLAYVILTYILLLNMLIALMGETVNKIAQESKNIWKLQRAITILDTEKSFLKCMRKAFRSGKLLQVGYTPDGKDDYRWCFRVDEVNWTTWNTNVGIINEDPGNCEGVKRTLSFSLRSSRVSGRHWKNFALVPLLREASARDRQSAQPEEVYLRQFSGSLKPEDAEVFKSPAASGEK
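Fluo-8 calcium influx in TRPV1-expressing cells, kinetic read (ex 480/em 520 nm). Compound added and read 3 min for agonist activity, followed by capsaicin at EC20 final and 2 min further read for enhancement.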
PINK1 expr mod: A Quantitative High throughput Screen to Identify Chemical Modulators of PINK1 Expression; Potency, µM (series often up to 76.6 µM), for the others: top-dose activation (PINK1 increase), hits mostly activators; AID 624263, 2012; PINK1 immunofluorescence, high-content cytometry, 24 h; actives 0.2% (n = 410,000); active = well fitted activation curve with a large enough effect; inconclusive = small, poorly fitted or top-dose-only effect; inactive = flat fitted curve, though single readings scatter; cell line not stated here;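 further: potency means the concentration at half of the fitted maximal effect; % of control where 0% means no effect; nearly all actives have a fitted effect of over 65% in size; a mitochondrial uncoupler was the plate control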
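Cells are seeded, rested 12 hours, then given compound at five concentrations or DMSO for 24 hours. After fixation, blocking and antibody staining, PINK1 amount and mitochondrial localization are scored; CCCP serves as control.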
TRPML1 ag: qHTS for Agonists of the Human Mucolipin Transient Receptor Potential 1 (TRPML1); TRPML1-expressing cells, Ca2+ dye fluorescence, FDSS; host cell line not named in the record; reference of the full effect not given here; activation, % (test concentration not listed); actives 0.12% (n = 410,000); AID 624414, 2012; in the data active = activation above about 50%; inconclusive = about 30% to 50%; inactive = below about 30%; further: 0% is about no effect; the text of the record puts the active cut at 80%
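Agonist activity was taken from a 110 s kinetic Ca2+ dye read on the FDSS after pinning compounds onto TRPML1-DL cells. The cells were seeded at 1,500/well with Tet inducer, incubated about 16 h, then dye-loaded at room temperature.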
ClpP mod: qHTS Assay for Activators of ClpP; ATP-dependent Clp protease proteolytic subunit (Bacillus subtilis (strain 168)), P80244; purified B. subtilis ClpP, FRET peptide cleavage, 20 min; Potency, µM (top dose mostly 57.5 µM), without a hit: at the top dose activity change, negative = active; actives 1.9% (n = 340,000); AID 651965, 2013; active = well fitted falling curve with a large enough effect; inconclusive = small, poorly fitted or top-dose-only effect; inactive = no such curve, though single readings can be large or run the other way; further: potency means the concentration at half of the fitted maximal effect; the source files actives as falling curves though it sought activators and does not explain the sign; nearly all actives have a fitted effect of over 65% in size; many hits overshoot -100%
Target sequence (P80244 whole entry, looked up): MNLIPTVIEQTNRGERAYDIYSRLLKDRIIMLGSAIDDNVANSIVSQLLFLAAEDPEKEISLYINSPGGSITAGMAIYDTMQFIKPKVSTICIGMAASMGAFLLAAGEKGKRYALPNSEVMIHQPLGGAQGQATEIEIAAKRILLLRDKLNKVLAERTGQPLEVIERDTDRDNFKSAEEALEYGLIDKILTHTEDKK
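Purified B. subtilis ClpP, 10 microg/mL final in Tris/HCl pH8 with KCl, BSA, glycerol and Tween-20, cleaved an Abz/nitrotyrosine-quenched decapeptide. Fluorescence (ex 320, em 430) was read at 0 and 20 min at room temperature. Delta was normalized to 5.8 microM ADEP and DMSO/no-enzyme controls.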
The depositor's hits bear a star; ? = inconclusive; nt = no result given; [ ] = remark or other dose.

item | smiles | Sfp PPTase inh | Menin-MLL FL inh | ClpP mod | TRPV1 potentiator | TRPML1 blocker | TRPML1 ag | PINK1 expr mod
1 | COc1ccc(CNc2ncncc2-c2ccccc2C(F)(F)F)c(OC)c1 | -14.5% | 4.0 | nt | nt | nt | nt | -0.7%
2 | C=CCOc1ccc(/C=C/C(=O)OCC(=O)N(C)C2CCS(=O)(=O)C2)cc1 (configuration not stated) | 17.3% | nt | -7.6% | 3.0 | 16.1 | 0.9 | -1.5%
3 | CN(c1ncc(C(F)(F)F)cc1Cl)N1C(=O)c2cccc(N)c2C1=O | -20.0% | ? | nt | 9.4 | -4.4 | 0.6 | 0.9%
4 | N#Cc1ccc(CN2CCCC3(CCNCC3)C2)cc1 | -13.3% | 6.6 | nt | nt | nt | nt | 0.1%
5 | Cc1cc(C(=O)O)c(S(C)(=O)=O)s1 | 19.6% | 3.3 | -0.4% | -1.8 | 8.8 | -0.5 | -2.5%
6 | CC(C)(C)c1ccc(OCC(=O)NCc2ccco2)cc1 | 10.9% | 2.0 | 1.9% | -11.1 | -5.7 | 0.7 | 0.4%
7 | CCOC(=O)C1=C(CS(=O)(=O)c2ccccc2)NC(=O)NC1c1ccccc1 (configuration not stated) | 13.1% | 2.3 | -0.1% | -6.4 | 10.9 | 0.0 | 3.4%
8 | CC1(C)Cc2nc(N3CCCC3)c(C#N)cc2CO1 | 14.8% | -1.3 | nt | -4.6 | -10.4 | -0.4 | -1.2%
9 | Cc1ccc(N/C=C(\C2OC(=O)c3ccccc32)[N+](=O)[O-])c(C)c1 (configuration not stated) | -5.1% | -17.0 | nt | -13.7 | 2.6 | -0.1 | 0.5%
10 | COc1ccc(C)cc1NC(=O)CN1CCN(S(=O)(=O)c2ccc3ccccc3c2)CC1 | nt | nt | 0.1% | 15.5 | 2.1 | 0.5 | 2.0%
11 | O=C(CN1C(=O)CCSc2ccccc21)Nc1ccc(F)cc1 | 4.6% | 0.4 | 0.4% | -15.0 | 3.2 | 3.0 | 6.9%[38.3 µM]
12 | O=C(Cc1ccc(S(=O)(=O)N2CCOCC2)s1)Nc1ccccc1N1CCCC1 | ? | -1.6 | -12.9% | 1.3 | -9.8 | 0.2 | 1.6%
13 | CCN(C(=O)CN1C(=O)CN(C)C1=O)c1cccc2ccccc12 | nt | nt | nt | nt | 18.1 | -0.4 | -3.4%
14 | Cc1ccc(C2(C)NC(=O)N(CC(=O)c3ccc(Cl)s3)C2=O)cc1 (configuration not stated) | 3.5% | 32.9[activator] | -9.7% | 3.7 | 6.0 | 3.1 | 2.5%
15 | CCOc1ccc(S(=O)(=O)NCCC(=O)N2CCN(Cc3ccccc3)CC2)cc1 | nt | nt | 2.1% | 6.9 | -3.6 | -0.5 | -0.7%
16 | COc1ccccc1NC(=O)CC1C(=O)Nc2c1c(=O)n(C)c(=O)n2C (configuration not stated) | 7.1% | -0.4 | -13.4% | -1.0 | 2.3 | -0.4 | -0.2%
17 | COc1ccc(CCNC(=O)c2ccc(CS(=O)(=O)c3ccc(Br)cc3)o2)cc1OC | 9.5% | 2.0 | -1.2% | -10.1 | 3.4 | 0.4 | -1.2%
18 | CCOC(=O)c1ccccc1NC(=O)c1cc2ccccc2o1 | 12.2% | 4.7 | 33.7% | -0.8 | nt | nt | 6.0%
19 | CCCc1nc2oc3c(N4CCNCC4)ncnc3c2c2c1CCCC2 | -14.4% | -0.5 | nt | ? | nt | nt | nt
20 | Cc1nnc(C)n1/N=C/c1ccc(C(C)C)cc1 | 0.7% | 3.3 | 1.1% | -18.9 | 11.8 | -0.4 | nt
21 | COc1ccc2c(c1)CCc1c(C(=O)N(C)c3ccccc3)noc1-2 | 8.7% | 1.4 | -4.7% | -12.2 | nt | nt | 1.1%
22 | Cc1ccc(NC2=CC(=O)CCC2)cc1C | -9.6% | -9.0 | -0.7% | -17.8 | 0.7 | -0.9 | -1.4%
23 | Cc1oc2ccc(OC(C(=O)O)c3ccccc3)cc2c1C(=O)O (configuration not stated) | 4.7% | -3.2 | 0.7% | -0.1 | 12.9 | -0.9 | 0.0%
24 | Cc1ccc(NC(=O)CN2C(=O)/C(=C3\SC(=S)N(C4CCS(=O)(=O)C4)C3=O)c3ccccc32)cc1 (configuration not stated) | -2.5% | 1.5 | -1.2% | 5.7 | 1.4 | 0.5 | -0.7%
25 | O=C1CCSC2(C(=O)N(Cc3ccc(F)cc3)c3ccccc32)N1c1cccc(F)c1 (configuration not stated) | nt | nt | 1.3% | nt | 49.6 | 1.4 | 4.7%
26 | CCCCOC(=O)CCc1c(C)n[nH]c1C | 12.1% | -1.5 | nt | -15.1 | -9.4 | 0.0 | -0.5%
27 | O=C(/C=C/c1cccc([N+](=O)[O-])c1)OCC(=O)N1CCOCC1 | nt | nt | -1.2% | 5.1 | -10.8 | -0.1 | 0.2%
28 | Cc1cccc(N2CCN(C(=O)CCc3nc4ccccc4c(=O)[nH]3)CC2)c1C | nt | nt | nt | nt | -13.3 | 0.9 | 6.7%
29 | Cc1ccc(NC(=O)CS(=O)CC(=O)N(c2ccccc2)C(C)C(=O)NC2CCCC2)cc1 (configuration not stated) | 17.0% | -2.2 | -0.5% | -3.4 | -19.6 | -0.7 | 3.1%[38.3 µM]
30 | COc1ccc(-c2nc(C#N)c(N3CCCCCC3)o2)cc1OC | -14.9% | 1.1 | 47.2% | -13.9 | -0.3 | 1.0 | nt

(continued)
item | smiles | Sfp PPTase inh | Menin-MLL FL inh | ClpP mod | TRPV1 potentiator | TRPML1 blocker | TRPML1 ag | PINK1 expr mod
31 | Cc1noc(NS(=O)(=O)c2ccc(N/C=C/C(=O)c3ccc(F)cc3)cc2)c1C | -16.1% | 3.4 | -0.6% | -10.4 | -4.7 | -0.8 | -0.8%
32 | N#CC1CCN(C(=O)c2ccc3c(Cl)c4c(nc3c2)CCCC4)CC1 | -6.7% | 1.5 | -0.2% | -6.7 | 10.9 | 3.3 | 3.8%
33 | CC(C)(C)c1ccc(Cn2c(=N)n(CC(O)c3ccco3)c3ccccc32)cc1 (configuration not stated) | -16.2% | 8.4 | nt | -12.2 | 17.3 | -0.4 | -1.0%
34 | C[C@@H]1CN([C@H](C)CO)C(=O)CCCn2cc(nn2)CO[C@H]1CN(C)S(C)(=O)=O | nt | nt | -2.0% | nt | -4.7 | 1.7 | 0.3%
35 | Cc1c(C(=O)NCCN2CCOCC2)sc2nc(-c3ccc(F)cc3)cn12 | nt | nt | -1.3% | nt | 16.9 | 1.0 | nt
36 | CCc1ccc(Nc2nn(-c3ccc(OC(F)(F)F)cc3)nc2C(C)=O)cc1 | nt | nt | 2.0% | nt | 9.6 | -0.4 | -0.4%
37 | O=C(NCc1ccccc1)c1noc2c1CCCCC2 | 12.2% | -0.5 | -2.6% | -11.2 | 2.4 | -0.4 | -1.6%[38.3 µM]
38 | COc1ccc(C2N3CC4(C)CN2CC(C)(C3)C4O)cc1 (configuration not stated) | -8.9% | -1.7 | -1.5% | -10.9 | -4.4 | 0.0 | 0.4%
39 | O=C(COc1ccc(OCc2ccccc2)cc1)NC1CCOC1=O (configuration not stated) | 1.6% | 2.0 | -2.7% | ? | 9.0 | 0.8 | 1.2%
40 | Cc1cc(C)c(OCC(=O)OCC(=O)NCc2cccs2)c(C)c1 | nt | nt | -2.9% | -23.9 | 3.6 | 0.8 | -1.3%
41 | COCCn1c(=O)c(-c2cc(F)cc(F)c2)nc2cnc(Oc3ccccc3)nc21 | 2.7% | 0.2 | nt | nt | nt | nt | 0.9%
42 | CC(OC(=O)c1ccc2ccccc2c1)C(=O)N(C)Cc1ccccc1 (configuration not stated) | nt | nt | -25.4% | 3.9 | 0.1 | 0.9 | -0.1%
43 | NNC(=O)c1cncc(Br)c1 | 1.5% | -6.5 | ? | 0.8 | 41.4 | -0.5 | -0.3%
44 | COC(=O)c1ccc(Cn2c(SCC(=O)NCc3ccccc3)nc3ccccc32)cc1 | nt | nt | 0.8% | nt | 4.1 | 0.4 | 4.0%
45 | O=C(O)c1ccc(N2C(=O)/C(=C\c3ccccc3)N=C2c2ccccc2)cc1 | ? | -0.5 | nt | -3.4 | 18.7 | -0.9 | -0.3%
46 | CC1CN(c2nc(-c3ccc(Br)cc3)nnc2-c2ccccc2)CC(C)N1 (configuration not stated) | -6.5% | 0.5 | 1.2% | nt | 14.2 | 0.5 | -1.7%
47 | CCOc1ccccc1OCCCCn1c(-c2ccc(Cl)cc2)nc2ccccc2c1=O | nt | nt | -12.0% | nt | -1.6 | 0.9 | -1.0%
48 | COc1ccc(C2C=C(c3ccc(Cl)cc3)Nc3nc(NC(C)=O)nn32)cc1 (configuration not stated) | ? | ? | nt | 7.5 | nt | nt | nt
49 | Cc1cc(OCC(=O)NCc2ccncc2)ccc1Cl | 20.3% | -4.7 | nt | -9.3 | 10.1 | 0.0 | 1.9%
50 | COCCCN1CC23C=CC(O2)C(C(=O)O)C3C1=O (configuration not stated) | -1.4% | 2.3 | -1.3% | nt | 8.7 | -0.2 | 0.8%
51 | CCOc1ccc(CC(=O)Nc2c(C(=O)c3ccc(F)cc3)oc3ccccc23)cc1OCC | nt | nt | -9.8% | nt | -6.9 | -0.6 | 11.2%
52 | CCCn1cnc2c(cnn2-c2ccc(F)cc2)c1=O | 8.8% | 0.8 | -13.4% | -21.1 | -0.7 | -1.2 | -3.1%
53 | O=S(=O)(c1ccc(Cl)c(NC(=S)N/N=C/c2c(F)cccc2F)c1)N1CCOCC1 | 6.4% | 1.9 | nt | 0.4 | 45.0 | 0.8 | 3.1%
54 | CCc1cccc(C)c1Nc1c(-c2cccc(O)c2)nc2nc(C)cc(C)n12 | nt | nt | -3.7% | nt | 20.0 | -0.5 | -0.9%

Assay outcomes deposited in PubChem by National Center for Advancing Translational Sciences (NCATS).

Compounds were not picked by outcome; any-hit rate near 4.4%.
